GIV Gai3 FP: blocks GIV peptide binding to rat Galpha-i3; P08753; Galpha-i3/FITC-GIV peptide fluorescence polarization, 90 min; hits give low values; scaled: aluminum fluoride 0%, vehicle 100%; percent of control (FP), % (test concentration not listed); 210,000 compounds, 0.42% hits; AID 1224905;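 active = replicate mean at 85% of control or lower, very high polarization wells dropped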;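 also: wells of about 15 µL received 100 nL stock; the first replicate is given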
Target sequence (P08753 whole entry, looked up): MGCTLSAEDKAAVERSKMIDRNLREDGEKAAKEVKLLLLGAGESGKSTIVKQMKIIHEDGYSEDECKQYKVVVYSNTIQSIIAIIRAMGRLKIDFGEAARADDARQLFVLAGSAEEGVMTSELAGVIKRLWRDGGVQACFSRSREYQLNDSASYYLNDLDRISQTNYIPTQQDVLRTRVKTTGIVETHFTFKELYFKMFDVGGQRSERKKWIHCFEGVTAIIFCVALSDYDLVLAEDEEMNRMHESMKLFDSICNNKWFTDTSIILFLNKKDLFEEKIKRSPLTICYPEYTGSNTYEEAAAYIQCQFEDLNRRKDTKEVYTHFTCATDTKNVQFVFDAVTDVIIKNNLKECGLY
* = called active by the depositor. An excerpt; rates above refer to the full screens.

GIV Gai3 FP	structure
103	O=C(NCc1cccnc1)c1ccc2c(=O)n(CC3CCCO3)c(=S)[nH]c2c1 (configuration not stated)
109	CCC(Sc1nc2n[nH]c(C)c2c(=N)n1-c1ccc(Oc2ccccc2)cc1)C(=O)NCCOC (configuration not stated)
110	CSC1=C(C#N)C(c2ccncc2)C(C(=O)Nc2ccccc2)=C(C)N1 (configuration not stated)
99	Cc1nc(SCC(=O)c2ccc3c(c2)OCCO3)c2c3c(sc2n1)CCCC3
99	O=C(C1CCC1)N1CCCc2cc(S(=O)(=O)N3CCc4ccccc4C3)ccc21
113	CCOc1cc(C(=O)Nc2ccc(S(=O)(=O)Nc3nc(C)cc(C)n3)cc2)cc(OCC)c1OCC
118	COc1cc(C)c(C#N)c(OC)n1
102	CCOc1ccc(C2=NN3C(C2)c2cccc(OCC)c2OC3c2ccc(C(=O)OC)cc2)cc1 (configuration not stated)
102	COc1cc(/C=C2/C(=O)N(c3ccc(C(=O)O)cc3)N=C2C)cc(Br)c1OCc1ccccc1
104	Cc1ccc(N2C(=O)CSC23C(=O)Nc2ccccc23)cc1Br (configuration not stated)
109	COc1ccc(NC(=O)Cn2ccc3ccc(-c4nnc(C)o4)cc32)c(OC)c1
102	Cc1onc(-c2ccccc2)c1C(=O)Nc1sc2c(c1C#N)CCCCCC2
104	COc1ccc(OC)c(C2CC(=O)Nc3c2cc(Br)c2ccccc32)c1 (configuration not stated)
109	CCOC(=O)C1=C(N)n2c(s/c(=C\c3ccc(OC)c(OC)c3)c2=O)=C(C#N)C1c1ccc(OC)c(OC)c1 (configuration not stated)
101	CCOC(=O)c1cc(C)nc2c1c(=O)n(Cc1nc(-c3cc(C)ccc3C)oc1C)c(=O)n2C
106	CC(=O)c1c(C)oc2ccc(N(C(C)=O)S(=O)(=O)c3ccc(Cl)c([N+](=O)[O-])c3)cc12
102	N#CC1=C(N)N2C(=C(C#N)C1c1ccc(Cl)cc1Cl)Sc1ccccc12 (configuration not stated)
105	Cc1cccc(C)c1NC(=O)C1CCCN(S(=O)(=O)c2cccc3cccnc23)C1 (configuration not stated)
111	Fc1ccc(-c2nc3c4cc(I)ccc4c4ccc(I)cc4c3[nH]2)cc1
104	COc1ccc(N2CCN(C(=O)CSc3nc4[nH]ncc4c(=O)n3-c3cccc(Cl)c3Cl)CC2)cc1
103	CCCCOc1ccc(-c2nc(/C=N/c3nc(CC(=O)OCC)cs3)c(O)o2)cc1
107	CN1C(=O)N(C)C2(c3ccccc3)Nn3c(s/c(=C/c4ccccc4)c3=O)=NC12c1ccccc1 (configuration not stated)
106	CCSc1nnc2c3ccccc3n(C)c2n1
101	CCOc1ccccc1C1Nc2ccc(Cl)cc2[C@H]2OCCC[C@@H]12 (some centres not stated)
98	COC(=O)c1ccc2c(=O)n(-c3ccc(OC)c(OC)c3)c(N3CCOCC3)nc2c1
104	Cc1noc(C)c1C1CCCN1Cc1cccc(F)c1 (configuration not stated)
102	CCCCNC(=O)c1cccc(Nc2ncc(-c3cccc(C)c3)cn2)c1
109	O=c1c2c3c(sc2ncn1Cc1c(F)cccc1Cl)CCCC3
106	O=c1n(Cc2ccc(Cl)cc2)nc2c(S(=O)(=O)N3CCOCC3)cccn12
105	CCOCCCNC(=O)CC1CCN(S(=O)(=O)c2cccs2)CC1

Arranged by count of non-hydrogen atoms (rising): some entries from above.
GIV Gai3 FP	structure
118	COc1cc(C)c(C#N)c(OC)n1
106	CCSc1nnc2c3ccccc3n(C)c2n1
104	Cc1noc(C)c1C1CCCN1Cc1cccc(F)c1 (configuration not stated)
104	Cc1ccc(N2C(=O)CSC23C(=O)Nc2ccccc23)cc1Br (configuration not stated)
101	CCOc1ccccc1C1Nc2ccc(Cl)cc2[C@H]2OCCC[C@@H]12 (some centres not stated)
111	Fc1ccc(-c2nc3c4cc(I)ccc4c4ccc(I)cc4c3[nH]2)cc1
102	CCCCNC(=O)c1cccc(Nc2ncc(-c3cccc(C)c3)cn2)c1
102	Cc1onc(-c2ccccc2)c1C(=O)Nc1sc2c(c1C#N)CCCCCC2
109	COc1ccc(NC(=O)Cn2ccc3ccc(-c4nnc(C)o4)cc32)c(OC)c1
106	CC(=O)c1c(C)oc2ccc(N(C(C)=O)S(=O)(=O)c3ccc(Cl)c([N+](=O)[O-])c3)cc12
98	COC(=O)c1ccc2c(=O)n(-c3ccc(OC)c(OC)c3)c(N3CCOCC3)nc2c1
102	COc1cc(/C=C2/C(=O)N(c3ccc(C(=O)O)cc3)N=C2C)cc(Br)c1OCc1ccccc1
102	CCOc1ccc(C2=NN3C(C2)c2cccc(OCC)c2OC3c2ccc(C(=O)OC)cc2)cc1 (configuration not stated)
104	COc1ccc(N2CCN(C(=O)CSc3nc4[nH]ncc4c(=O)n3-c3cccc(Cl)c3Cl)CC2)cc1
109	CCOC(=O)C1=C(N)n2c(s/c(=C\c3ccc(OC)c(OC)c3)c2=O)=C(C#N)C1c1ccc(OC)c(OC)c1 (configuration not stated)

Other results follow.
GIV Gai3 FP	structure
98	Cc1ccc(-n2c(C)c([N+](=O)[O-])c3ccc(O)c(CN(C)C)c32)cc1
112	CC1(C(=O)NCc2cccc(F)c2)CCCN(C(=O)c2ccccc2Cl)C1 (configuration not stated)
106	O=C(CN1C(=O)C2(OCCO2)c2ccccc21)c1cccc2ccccc12
105	Cc1nc(N2CCCCC2)c2c(C)c(C(=O)N3CCN(Cc4ccccc4)CC3)sc2n1
115	CN(CCc1noc(-c2ccc(C(=O)NCc3ccccc3)cc2)n1)C(=O)c1ccccc1
99	CCOCCCNC(=O)N1c2ccccc2NC2=C(C(=O)CC(C)(C)C2)C1c1ccc(F)cc1 (configuration not stated)
108	COc1ccc(S(=O)(=O)n2nnc3ccccc32)c(C)c1
117	CC(=O)Oc1ccc(C2Nc3ccc(C(=O)O)cc3C3C=CCC32)c(OC(C)=O)c1 (configuration not stated)
99	CCOC(=O)c1c(CS(=O)(=O)c2ccccc2)n(C)c2cc(Br)c(O)c(CN(C)C)c12
104	Cc1ccc(C2C3=C(Nc4ncnn42)c2cc(Cl)ccc2OC3c2ccc(F)cc2)cc1 (configuration not stated)
114	COc1ccccc1-n1c(CNC(=O)c2cc(OC)c(OC)c(OC)c2)nnc1SCC(=O)N1CCc2ccccc21
97	O=c1ccn(-c2ccc(Cl)cc2)nc1-c1nc(-c2ccccc2)no1
101	CCOC(=O)c1cc(C#N)c(SCC(=O)c2ccc(Br)cc2)nc1N
123	O=C1/C(=C\c2ccc(-c3ccc(Cl)cc3)o2)NC(=S)N1c1ccccc1
102	O=[N+]([O-])c1ccc(C2CC(c3cccs3)=Nc3ccccc3S2)cc1 (configuration not stated)
102	COc1cccc(N2C(=O)C(=O)/C(=C(\O)c3ccccc3)C2c2ccc(O)c(OC)c2)c1 (configuration not stated)
98	CCOc1cc(C2NC(=O)NC(C)=C2C(=O)Nc2ccc(Br)cc2)ccc1O (configuration not stated)
105	CCOC(=O)c1cnc2ccccc2c1Nc1ccc(C)c(C)c1
104	COc1cccc(C2CC(c3cccs3)=NN2C(=O)CSc2c[nH]c3ccccc23)c1OC (configuration not stated)
116	COc1cccc(-c2nnc3ccc4ccccc4n23)c1OC
107	Cc1nc(N2CCOCC2)nc(Nc2ccc(Cl)cc2)c1[N+](=O)[O-]
116	COc1ccccc1N1CCN(C(=O)CCCn2c(SCC(=O)NCc3ccccc3)nc3ccccc3c2=O)CC1
108	O=C1C2C(c3ccc(Cl)cc3)OC3(C(=O)c4ccccc4C3=O)C2C(=O)N1c1ccc(F)cc1 (configuration not stated)
105	COc1ccc2c(c1)NC1(CCN(C(=O)Nc3ccccc3Br)CC1)c1cccn1-2
98	CCC1CCCCN1C(=O)C1CCCN1C(C)=O (configuration not stated)
106	Cc1ccc2c(c1)C(C)(c1ccccc1)CC(C)(C)N2C(=O)Nc1cccc(Cl)c1 (configuration not stated)
104	CCC(=O)Nc1c(-c2ccc(C)cc2)nc2ccc(C)cn12
98	CCOC(=O)c1c(NC(=O)c2cc3ccccc3oc2=O)sc(C)c1-c1ccccc1
101	CCOC(=O)C1=C(C)Nc2[nH]c(=O)[nH]c(=O)c2C1c1ccccc1Cl (configuration not stated)
108	COc1ccc(-c2cc(C(F)(F)F)n3ncc(C(=O)Nc4ccc(C(C)=O)cc4)c3n2)cc1OC

Carrying on:
GIV Gai3 FP	structure
106	CCOc1ccccc1-n1c(=S)[nH]c2[nH]ncc2c1=O
105	O=C(Nc1cccc(Cl)c1)c1nnc(C2CCCN(C(=O)NC3CCCCC3)C2)s1 (configuration not stated)
104	Cc1ccc(-c2nc3ccccc3c3nnc(SCc4cc(=O)n5cc(Cl)ccc5n4)n23)cc1
130	COc1ccc(N2C(N)=C(C#N)C(c3ccc(F)cc3)C3=C2CC(C)(C)CC3=O)c(OC)c1 (configuration not stated)
103	CCC(=O)N1c2ccccc2NC2=C(C(=O)CC(c3cccs3)C2)C1c1ccc(C(F)(F)F)cc1 (configuration not stated)
110	CCOC(=O)c1c(NC(=O)C(C)Sc2nnc(CNC(=O)c3ccc([N+](=O)[O-])cc3)n2C)sc2c1CCCC2 (configuration not stated)
111	O=C(O)c1ccccc1Nc1nc(N2CCCC2)nc(N2CCCC2)n1
106	Cc1ccc(C(=O)[C@H]2[C@@H]3C4COC(O4)C(=O)[C@H]3[C@@H]3c4ccccc4C=CN23)cc1 (some centres not stated)
108	COc1ccc(CCNC(=O)CCn2c(SCC(=O)NCc3ccccc3)nc3ccccc3c2=O)cc1OC
117	Cc1ccc(-c2noc(Cc3nc(-c4ccc(C)cc4C)cs3)n2)cc1
103	CCOC(=O)c1[nH]c(C)c(CCC(=O)N2CCCC(C(=O)NC3CC3)C2)c1C (configuration not stated)
100	COc1ccccc1C(NC(=O)Cc1ccccc1)c1ccc2cccnc2c1O (configuration not stated)
101	CCCS(=O)(=O)c1nc2ccc(NS(=O)(=O)c3c(C)noc3C)cc2s1
107	Cc1ccccc1CNC(=O)c1ccc(-c2nc(CCN(C)C(=O)c3ccc(Cl)cc3)no2)cc1
100	CCOC(=O)C1CCN(C(=O)c2cc(NC(=O)c3ccccc3Cl)cnc2N2CCNCC2)CC1
101	CCOC(=O)c1c(S(=O)(=O)N2CCC(C(=O)Nc3cc(OC)ccc3OC)CC2)c(C)n(C)c1C
117	COc1ccc(CCNC(=O)CSc2nc3[nH]ncc3c(=O)n2-c2ccccc2Br)cc1OC
106	Cc1ccc(NC(=O)CSC2=C(C#N)C(c3cccs3)C3=C(CCCC3=O)N2)c(C)c1 (configuration not stated)
113	CC1(C)Cc2ccccc2C(=C(C#N)C#N)N1
111	Cc1ccc(Nc2nc3nonc3nc2NC2CCCCC2)cc1C
97	COCCCN1CCc2nc(SCc3ccc(F)cc3Cl)[nH]c(=O)c2C1
108	COc1ccc(C2Nc3ccccc3C(=O)N2c2ccc(Oc3ccccc3)cc2)cc1 (configuration not stated)
104	C=CCn1c(=O)c2sc(N3CCCCC3)nc2n(CC(=O)Nc2cc(F)cc(F)c2)c1=O
110	CCOC(=O)N1CCC(n2c(SCC(=O)N3CCN(c4ccccc4OC)CC3)nc3ccccc3c2=O)CC1
108	CCCS(=O)(=O)c1c(S(=O)(=O)CCC)c2ccccn2c1C(=O)c1ccc(F)cc1
102	COC(=O)C1=C(C)OC(N)=C(C#N)C1c1ccc(Br)s1 (configuration not stated)
99	CC1(C)CC(=O)C(C(C2=C(O)CC(C)(C)CC2=O)c2ccc(O)cc2)C(=O)C1 (configuration not stated)
95	Cc1ccc(CN=C2Nc3ccccc3NC23CCCCCC3)cc1
109	CCOc1ccc(NC(=O)CSC2=C(C#N)C(c3ccc(O)c(OCC)c3)CC(=O)N2)cc1 (configuration not stated)
105	Cc1cccc(C2(c3cccc(C)c3)CC2C(=O)Nc2ccc(F)cc2)c1 (configuration not stated)

Following part:
GIV Gai3 FP	structure
107	O=C1CCCN1CCCNc1ncnc2c1c(-c1ccccc1)cn2-c1ccc(Br)cc1
112	CSc1cccc([C@H]2[C@H](C(=O)C34CC5CC(CC(C5)C3)C4)N3C=Cc4ccccc4[C@H]3C2(C#N)C#N)c1
110	CCc1ccc(N2CC(O)(c3ccc(F)cc3)[N+]3=C2SCCC3)cc1 (configuration not stated)
100	Cc1c(CC(=O)O)c2c(n1-c1cc(C(F)(F)F)ccc1Cl)CC(C)(C)CC2=O
110	COc1cc(OC)c(NS(=O)(=O)c2cc(-c3cc(C(F)(F)F)[nH]n3)sc2C)cc1Cl
95	COc1ccc(C2(O)CN(c3ccccc3)C3=[N+]2CCCC3)cc1OC (configuration not stated)
100	O=C1CC(c2ccccc2OCc2ccccc2)c2cnn(-c3nc4ccccc4s3)c2N1 (configuration not stated)
104	O=C(Cc1ccsc1)NCc1nnc2n1CCCC2
116	O=C1/C(=C/c2ccc(-c3cc(Cl)ccc3Cl)o2)C=C(c2ccccc2)N1c1ccc(Cl)cc1
123	CCC1(C)CC(CCNCc2ccc(OC)cc2)(c2ccc(F)cc2)CCO1 (configuration not stated)
111	C#CCOc1c(Cl)cc(/C=c2\sc3nc4cc(C)c(C)cc4n3c2=O)cc1OC
102	COc1ccc(-c2cc(Oc3cccc(C(=O)NCCC(C)C)c3)ncn2)cc1
105	Cc1cc(C)c2c(n1)sc1c(-c3ccccc3)onc12
104	CCCCNc1nc(SCC(=O)Nc2ccc(OCC)cc2)nc2ccccc12
104	Cc1noc(C)c1S(=O)(=O)N1CCC2(C1)C(=O)N(C)c1ccccc12 (configuration not stated)
108	Nc1c(C(=O)N2CCOCC2)sc2nc(-c3cccs3)cc(C(F)(F)F)c12
102	CCCc1cc(C2CCCN2Cc2ccc(C)cc2C)no1 (configuration not stated)
97	COc1cc(C2C(C(=O)N3CCCCC3)=C(C)NC3=C2C(=O)CCC3)cc(Br)c1O (configuration not stated)
106	Cc1cc(Sc2ccc(NC(=O)C3CC3)cc2)n2ncnc2n1
106	CCSc1nnc(-c2nn(C)c3c2CN(S(=O)(=O)c2c(C)nn(C)c2C)CC3)n1CC
103	Cc1ccc(NC(=O)Nc2cccc(CCc3nc4ccccc4n3C)c2)cc1

High-throughput results (PubChem BioAssay)
